Compound activity from PubChem BioAssay.
A488 autofl – A488 region autofluorescence. compound autofluorescence, A488 spectral region, dye equivalency; hits give high values. max dye equivalency, M. 59,000 tested, 0.1% active. AID 591; active = above 10 nM dye equivalent; inconclusive = 1 to 10 nM; inactive = 1 nM or less; about half of its hits are not listed in these tables;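 note: highest value over a series up to 38 µM; compound alone in buffer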
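Compound autofluorescence was read in 100 mM Tris pH 8.0 after 15 min at room temperature, ex 480 nm/em 540 nm. Intensities were converted to A488 dye-equivalent concentration using an on-plate six-point A488 standard curve.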
AID923 – qHTS Assay for Allosteric/Competitive Inhibitors of Caspase-1: Spectroscopic Profiling in AFC Spectral Region | compound fluorescence, AFC spectral region (405/520 nm); almost no hit is shown here | Potency, µM (titrated, usually from 57.5 µM), for inactives: top-dose fluorescence increase, hits mostly activators | 75,000 tested, 1.1% active; active = well fitted activation curve with a large enough effect; inconclusive = small, poorly fitted or top-dose-only effect;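 note: potency is the fitted concentration of half-maximal effect; 0% is about no effect; scaled to a free AFC standard on each plate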
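Compound autofluorescence profiled at 405 nm ex/520 nm em during kinetic caspase 1 run (50 nM enzyme, 5 uM Ac-WEHD-AFC, HEPES pH 7.5, 10 mM DTT). Titration up to 57 uM; baseline from regression intercept, normalized to AFC standard curve.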
Resorufin fluor – compounds fluorescent in resorufin spectral region; Compound fluorescence, resorufin region 547/598 nm, buffer; hits give high values; max dye-equivalent concentration, M; 59,000 tested, 0.04% active; active = above 10 nM dye equivalent; inconclusive = 1 to 10 nM; inactive = 1 nM or less; a few of its hits are not listed in these tables; note: highest value over a series up to 38 µM
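Read-out: intrinsic compound fluorescence at ex 547/em 598 nm after 15 min at RT in pH 8.0 Tris (100 mM). Values expressed as resorufin-equivalent concentration from per-plate standard series.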
TSHR ag – activates the human thyroid stimulating hormone receptor. P16473. HEK293-CNG-TSHR cells (CNG channel as cAMP sensor), membrane potential dye, cAMP. Potency, µM (series often up to 57.1 µM), for inactives: at the top dose activation, hits mostly activators. 73,000 tested, 0.48% active; active = well fitted activation curve of enough size with the parental cells flat; inconclusive = any curve in the parental cells; inactive = parental cells flat and receptor cells flat or falling; note: potency is the fitted concentration of half-maximal effect; % of control where 0% means no effect; weak receptor curves with flat parental cells got no call and are not listed
Target sequence (P16473 whole entry, looked up): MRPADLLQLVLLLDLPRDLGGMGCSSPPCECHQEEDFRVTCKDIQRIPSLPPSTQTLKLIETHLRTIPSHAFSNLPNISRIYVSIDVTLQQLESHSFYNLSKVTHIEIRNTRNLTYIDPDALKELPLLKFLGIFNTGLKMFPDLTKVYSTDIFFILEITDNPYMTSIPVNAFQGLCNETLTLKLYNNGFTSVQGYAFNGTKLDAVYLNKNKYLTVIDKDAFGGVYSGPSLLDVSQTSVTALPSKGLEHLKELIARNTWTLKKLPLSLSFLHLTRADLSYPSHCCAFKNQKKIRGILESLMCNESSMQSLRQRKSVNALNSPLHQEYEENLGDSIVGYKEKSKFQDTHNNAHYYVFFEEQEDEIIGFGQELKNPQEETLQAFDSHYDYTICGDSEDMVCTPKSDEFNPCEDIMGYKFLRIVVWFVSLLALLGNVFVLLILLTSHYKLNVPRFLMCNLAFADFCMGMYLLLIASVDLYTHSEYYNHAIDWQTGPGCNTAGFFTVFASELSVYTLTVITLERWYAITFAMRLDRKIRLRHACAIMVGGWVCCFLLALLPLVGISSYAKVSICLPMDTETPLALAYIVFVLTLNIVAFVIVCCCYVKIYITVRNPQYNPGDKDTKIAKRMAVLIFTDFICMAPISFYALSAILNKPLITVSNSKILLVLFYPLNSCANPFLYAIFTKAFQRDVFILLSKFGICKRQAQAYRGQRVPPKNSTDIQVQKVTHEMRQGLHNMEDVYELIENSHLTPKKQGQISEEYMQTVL
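HEK 293 cells stably expressing TSHR and a cAMP-gated CNG channel; parental CNG-only cells as counterscreen. Cells preloaded 60 min with membrane potential dye plus 100 uM RO 20-1724, then compound 30 min; fluorescence read at 590 nm.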
A647 fluor – compound autofluorescence in A647 spectral region; max dye-equivalent concentration, M; AID 592; Compound fluorescence, A647 channel (570/671 nm), Tris buffer; 59,000 tested, under 10 active; active means above 1 µM dye equivalent; inconclusive means 0.1 to 1 µM; inactive means 0.1 µM or less;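 note: values scaled relative to a standard on each plate; highest value over a series up to 38 µM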
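Compound fluorescence was measured in 100 mM Tris buffer, pH 8.0, after 15 min at room temperature, using 570 nm excitation and 671 nm emission filters. Signal was normalized to a per-plate Alexa 647 standard curve and expressed as dye-equivalent concentration at each compound concentration.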
* hit, by the source's call; [ ] = remark or other dose. Some of the compounds tested; the hit share may differ from the screen's.

For Nc1nc(-c2cccnc2)nn1C(=O)c1ccco1 the results were A488 autofl inactive, AID923 -0.5%, Resorufin fluor inactive, TSHR ag -2.1% and A647 fluor 1e-09.
Cc1cc2nnc(SC3CCOC3=O)n2c2ccccc12 (stereo not given) was read as A488 autofl inactive, AID923 1.1%, Resorufin fluor inactive and A647 fluor 1e-09.
Screening Cc1nn(CC(=O)Nc2ccc(C(=O)N3CCCC3)cc2)c(=O)c2ccccc12 returned A488 autofl inactive, AID923 0.1%, Resorufin fluor inactive, TSHR ag inconclusive and A647 fluor 2.2e-09.
Screening COc1nc(NCC(C)C)nc(Oc2ccc(=O)n(-c3ccccc3)n2)n1 returned AID923 -1.8% and TSHR ag 4.4%.
For Cn1c(C(C#N)C2=C(Cl)C(=O)N(c3ccccc3)C2=O)nc2ccccc21 (stereo not given) the results were A488 autofl inactive, AID923 0.2%, Resorufin fluor inactive, TSHR ag inconclusive and A647 fluor 5.6e-09.
`COc1ccccc1-c1noc(-c2ccccc2C(=O)N2CCOCC2)n1` gave A488 autofl inactive, AID923 -1.1%, Resorufin fluor inactive and A647 fluor 6.6e-09.
`Cc1cccn2cc(CNc3ccccc3)nc12` gave A488 autofl inactive, AID923 -0.9%, Resorufin fluor inactive, TSHR ag 0.3% and A647 fluor 1e-09.
Screening CCOC(=O)Cc1csc(NC(=O)CSc2nnc(-n3nc(C)cc3C)c3ccccc23)n1 returned A488 autofl inactive, AID923 -0.2%, Resorufin fluor inactive, TSHR ag inconclusive and A647 fluor 1e-09.
Screening Brc1ccc(Oc2nnnn2-c2ccccc2)cc1 returned AID923 1.9% and TSHR ag 25.1µM*.
`Cc1ccc(S(=O)(=O)N(CC(O)CN2CCCC2)c2ccccc2)cc1` (stereo not given) gave A488 autofl inactive, AID923 -0.3%, Resorufin fluor inactive, TSHR ag 15.8% and A647 fluor 4.36e-08.
For C[N+](C)(C)[C@H](Cc1c[nH]c(=S)[nH]1)C(=O)O the results were A488 autofl inactive, AID923 2.6%[11.5 µM], Resorufin fluor inactive, TSHR ag 11.4%[11.4 µM] and A647 fluor 3.5e-09.
OC(COc1ccc2ccccc2c1Br)Cn1ccnc1 (stereo not given) was read as A488 autofl inactive, AID923 -2.3%, Resorufin fluor inactive, TSHR ag 1.5% and A647 fluor 2.82e-08.
For COc1cccc(NC(=O)COC(=O)c2ccco2)c1 the results were A488 autofl inactive, AID923 1.0%, Resorufin fluor inactive, TSHR ag 12.4% and A647 fluor 1e-09.
`COc1ccccc1NC(=O)CSc1nnc(-c2ccccc2)o1` gave AID923 0.0% and TSHR ag 11.7%.
`COC(=O)c1ccc(-c2nn(C)c(=O)c3ccccc23)cc1` gave AID923 -1.4% and TSHR ag -3.2%.
Screening O=C(CCCCCN1C(=O)c2ccccc2C1=O)NCCc1nc2ccccc2[nH]1 returned A488 autofl inactive, AID923 0.5%, Resorufin fluor inactive, TSHR ag 3.4% and A647 fluor 1e-09.
Screening O=C(Oc1cccnc1)c1cccc(Cl)c1 returned AID923 0.0% and TSHR ag 3.2%.
For CCn1c(SCC(=O)N2CCN(c3ccc(F)cc3)CC2)nc2ccccc2c1=O the results were A488 autofl inactive, AID923 -1.5%, Resorufin fluor inactive, TSHR ag inconclusive and A647 fluor 4.22e-08.
For C1CCCN(CCCCN2CCCCCC2)CC1 the results were A488 autofl inactive, Resorufin fluor inactive and A647 fluor 7.42e-08.
`COCCNC(=O)C(OC(=O)c1cccs1)c1ccccc1` (stereo not given) gave A488 autofl inactive, AID923 0.5%, Resorufin fluor inactive, TSHR ag 6.2% and A647 fluor 4.84e-08.
For CCN1CCC(NC(=O)c2cc(OC)c(OC)cc2OC)CC1 the results were A488 autofl inactive, AID923 -0.3%, Resorufin fluor inactive, TSHR ag -2.7% and A647 fluor 1e-09.
Cc1cc(C)cc(N(C(=O)c2ccc3c(c2)OCO3)C2C=CS(=O)(=O)C2)c1 (stereo not given) was read as A488 autofl inactive, AID923 -0.3%, Resorufin fluor inactive, TSHR ag 3.9%[11.4 µM] and A647 fluor 1e-09.
For C/C=C/Cn1c(SC)nc2c1c(=O)[nH]c(=O)n2C the results were A488 autofl inactive, AID923 -0.5%, Resorufin fluor inactive, TSHR ag 4.6% and A647 fluor 2.05e-08.
`Cc1c(C(=O)NCCN2CCOCC2)oc2ccc(S(=O)(=O)N3CCCCCC3)cc12` gave A488 autofl inactive, AID923 0.7%, Resorufin fluor inactive, TSHR ag 7.3%[11.4 µM] and A647 fluor 1.09e-08.
Cc1ccc(CNC(=O)C(OC(=O)c2ccco2)C(C)C)cc1 (stereo not given) was read as A488 autofl inactive, AID923 0.5%, Resorufin fluor inactive, TSHR ag -2.9% and A647 fluor 4.4e-08.
`CC(C)NCC[C@@H](O)c1cc2ccccc2o1` gave A488 autofl inactive, AID923 0.8%[11.5 µM], Resorufin fluor inactive, TSHR ag 2.4%[11.4 µM] and A647 fluor 1e-09.
Screening COCc1nnc(NC(=O)c2cccs2)s1 returned A488 autofl inactive, AID923 -2.7%, Resorufin fluor inactive, TSHR ag 2.0% and A647 fluor 1.83e-08.
Screening COc1cccc(C2=N/C(=C\N(C)C)C(=O)O2)c1 returned AID923 -2.5% and TSHR ag -10.5%.
For CC(NC(=O)c1nn(C)c(=O)c2ccccc12)c1ccc(F)cc1 (stereo not given) the results were A488 autofl inactive, AID923 -0.3%, Resorufin fluor inactive, TSHR ag 6.1%[11.4 µM] and A647 fluor 1e-09.
For O=C(O)CCSc1nc2ccccc2s1 the results were A488 autofl inactive, AID923 0.5%, Resorufin fluor inactive and A647 fluor 4.6e-09.
Oc1cccc(-c2nc3ccccc3s2)c1 was read as A488 autofl inactive, AID923 -1.0%, Resorufin fluor inactive, TSHR ag -4.2% and A647 fluor 1.5e-08.
`CCN(CC)CCN1C(=O)C(=O)/C(=C(/O)c2ccc(OCC(C)C)cc2)C1c1ccncc1` (stereo not given) gave A488 autofl inactive, AID923 -1.9%, Resorufin fluor inactive, TSHR ag 3.7% and A647 fluor 1e-09.
Screening Cc1ccc(C2CC(=O)N3CN(c4ccc(Br)cc4)CSC3=C2C#N)o1 (stereo not given) returned A488 autofl inactive, AID923 9.9%, Resorufin fluor inactive, TSHR ag 3.0% and A647 fluor 5.8e-09.
For CCC(=O)N(CCc1ccccc1C)Cc1cc2cc3c(cc2[nH]c1=O)OCO3 the results were A488 autofl inactive, AID923 2.0%, Resorufin fluor inactive and A647 fluor 4.57e-08.
CC(C)(C)NC(=O)C(c1ccncc1)N(C(=O)c1csnn1)C1CC1 (stereo not given) was read as A488 autofl inactive, AID923 3.7%, Resorufin fluor inactive, TSHR ag 7.4% and A647 fluor 1.3e-09.
For CCNC(=O)N(C)c1nncnc1C(=O)NC the results were A488 autofl inactive, Resorufin fluor inactive and A647 fluor 2.4e-09.

Among those listed so far, 3 contain bromine:
Screening Brc1ccc(Oc2nnnn2-c2ccccc2)cc1 returned AID923 1.9% and TSHR ag 25.1µM*.
OC(COc1ccc2ccccc2c1Br)Cn1ccnc1 (stereo not given) was read as A488 autofl inactive, AID923 -2.3%, Resorufin fluor inactive, TSHR ag 1.5% and A647 fluor 2.82e-08.
Screening Cc1ccc(C2CC(=O)N3CN(c4ccc(Br)cc4)CSC3=C2C#N)o1 (stereo not given) returned A488 autofl inactive, AID923 9.9%, Resorufin fluor inactive, TSHR ag 3.0% and A647 fluor 5.8e-09.

Following part:
Screening COC(=O)C1(C)C=CC2(CCCCC2)N1C(=O)c1ccccc1 (stereo not given) returned AID923 1.5% and TSHR ag inconclusive.
`O=C(CN1CCC(n2nnc3cc(C(F)(F)F)ccc32)CC1)Nc1ccc2c(c1)OCCO2` gave A488 autofl inactive, AID923 -2.2%, Resorufin fluor inactive, TSHR ag inconclusive and A647 fluor 1.36e-08.
`COC(=O)c1ccc(NS(=O)(=O)c2ccc3c(c2)oc(=O)n3C)cc1` gave AID923 -3.4% and TSHR ag inconclusive.
Screening Cc1cc(C)cc(NC(=O)CCNS(=O)(=O)c2ccc3c(c2)oc(=O)n3C)c1 returned A488 autofl inactive, AID923 -1.0%, Resorufin fluor inactive, TSHR ag -7.3% and A647 fluor 3.73e-08.
CCC1CCCCN1C(=O)CSc1nc2c(cnn2-c2ccc(C)cc2)c(=O)[nH]1 (stereo not given) was read as AID923 -2.8% and TSHR ag 3.2%.
`COc1ccc(-c2nc(CSCC(=O)NCc3ccc4c(c3)OCO4)c(C)o2)cc1OC` gave AID923 -0.1% and TSHR ag 8.3%.
`COc1ccc(-n2nc(C(=O)NCC(=O)NCC3CCCO3)c3ccccc3c2=O)cc1` (stereo not given) gave A488 autofl inactive, AID923 1.1%, Resorufin fluor inactive, TSHR ag 0.3% and A647 fluor 1.41e-08.
For CCOc1ccccc1NC(=O)C1CCC(CNc2c(N3CCOCC3)c(=O)c2=O)CC1 (stereo not given) the results were AID923 0.4% and TSHR ag 1.3%.
`CCN(CCCNC(=O)COc1cc(=O)n(CC)c2ccccc12)Cc1ccccc1` gave A488 autofl inactive, AID923 0.7%, Resorufin fluor inactive, TSHR ag 3.5%[11.4 µM] and A647 fluor 3.8e-09.
C=CCSc1nnc(C)n1-c1ccc(Cl)cc1 was read as A488 autofl inactive, AID923 -3.7%, Resorufin fluor inactive, TSHR ag -2.3% and A647 fluor 1.48e-08.
O=C(CCN1C(=O)c2ccccc2C1=O)OCN1C(=O)c2ccccc2C1=O was read as A488 autofl inactive, Resorufin fluor inactive and A647 fluor 1e-09.
`O=C(Nc1ccc(F)cc1F)N1CCN(c2ncccn2)CC1` gave AID923 3.7% and TSHR ag 2.0%.
For COc1cccc(CN2C(=O)CCC2(C)C(=O)NC2CCCCC2)c1 (stereo not given) the results were AID923 -1.2% and TSHR ag 4.8%.
For Cc1ccc(C)c(NC(=O)CS(=O)(=O)c2c[nH]c3ccccc23)c1 the results were A488 autofl inactive, AID923 1.1%, Resorufin fluor inactive, TSHR ag inconclusive and A647 fluor 1e-09.
Screening CCCC[P+](CCCC)(CCCC)Cc1ccc(NC(=O)[C@@H](Cc2ccc3ccccc3c2)NC(=NC2CCCCC2)NC2CCCCC2)cc1 returned AID923 0.5% and TSHR ag -12.3%.
Screening O=C(NC1CCCCC1)N1CCc2[nH]c3ccccc3c2C1 returned A488 autofl inactive, AID923 20.2%, Resorufin fluor inactive, TSHR ag -5.2% and A647 fluor 2.43e-08.
For NS(=O)(=O)c1cc2c(cc1Cl)=NC(CCC(=O)O)=NS=2(=O)O the results were A488 autofl inactive, AID923 0.9%[11.5 µM], Resorufin fluor inactive, TSHR ag 0.5%[11.4 µM] and A647 fluor 5.07e-08.
For Cc1cc(Nc2ccc(N3CCC(C)CC3)cc2)n2ncnc2n1 the results were A488 autofl inactive, AID923 0.6%, Resorufin fluor inactive, TSHR ag -6.6% and A647 fluor 1.04e-08.
CON(C)c1nc(OCCNC(=O)OCc2ccc(Cl)cc2Cl)nc(N(C)C)n1 was read as A488 autofl inactive, AID923 -2.3%, Resorufin fluor inactive, TSHR ag inconclusive and A647 fluor 4.2e-09.
For CC(C)[C@@H]1OC(=O)C=CC=CC=CC=CC=CC[C@@H](O)[C@H](C)[C@@H](O)C[C@H](O)C[C@H](O)C[C@H](O)C[C@H](O)C[C@H](O)C[C@H](O)C=C[C@@H]1C the results were A488 autofl inactive, Resorufin fluor inactive, TSHR ag -3.6%[11.4 µM] and A647 fluor 8.6e-09.
`O=C(O)C1CCCCC1C(=O)NCc1cn2ccccc2n1` (stereo not given) gave AID923 1.2% and TSHR ag 2.1%.
For OC(Cn1ccnc1)c1ccc(Cl)cc1Cl (stereo not given) the results were A488 autofl inactive, AID923 -0.1%, Resorufin fluor inactive, TSHR ag 1.4% and A647 fluor 3.7e-08.
